Six1-Eya2 blk – Six1/Eya2 interaction inhibition; AID 651725; Q15475+O00167; 0.56% of 360,000 active; activity change, % (test concentration not listed); AlphaScreen GST-Six1/His-Eya2 binding, biochemical; active compounds read low; control for the full effect not named in the record; in the data active = activity change below about -65%; inconclusive = about -30% to -65%; inactive = above about -30%; note: % is set by controls: 0 for no effect and ±100 for the full control effect
Target sequence (O00167 whole entry, looked up): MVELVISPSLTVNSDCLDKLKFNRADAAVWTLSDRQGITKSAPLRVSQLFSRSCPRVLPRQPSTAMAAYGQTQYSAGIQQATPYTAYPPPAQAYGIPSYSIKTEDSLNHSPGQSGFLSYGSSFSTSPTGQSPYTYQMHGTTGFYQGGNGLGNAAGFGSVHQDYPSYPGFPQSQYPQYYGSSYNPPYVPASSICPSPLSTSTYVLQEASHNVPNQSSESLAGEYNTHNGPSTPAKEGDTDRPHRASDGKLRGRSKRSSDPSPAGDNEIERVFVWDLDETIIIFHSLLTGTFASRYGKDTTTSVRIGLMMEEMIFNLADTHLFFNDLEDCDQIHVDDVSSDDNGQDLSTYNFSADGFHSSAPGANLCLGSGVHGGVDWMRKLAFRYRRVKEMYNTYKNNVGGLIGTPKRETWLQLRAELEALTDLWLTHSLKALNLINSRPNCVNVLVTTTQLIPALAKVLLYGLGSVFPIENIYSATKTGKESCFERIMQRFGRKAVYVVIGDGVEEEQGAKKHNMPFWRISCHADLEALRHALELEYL
Target sequence (Q15475 whole entry, looked up): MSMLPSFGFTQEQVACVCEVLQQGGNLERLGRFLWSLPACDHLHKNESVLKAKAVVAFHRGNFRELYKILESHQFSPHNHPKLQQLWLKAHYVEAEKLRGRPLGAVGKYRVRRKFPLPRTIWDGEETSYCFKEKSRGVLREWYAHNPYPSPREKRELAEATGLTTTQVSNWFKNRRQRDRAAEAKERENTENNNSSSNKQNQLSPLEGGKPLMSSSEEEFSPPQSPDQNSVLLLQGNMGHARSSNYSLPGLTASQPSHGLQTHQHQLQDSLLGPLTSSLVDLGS
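Homogeneous AlphaScreen proximity assay pairing GST-Six1 with His-tagged Eya2 (added as 5X mix: 250 nM and 500 nM) in 50 mM Tris pH 8.0, 300 mM NaCl, 1 mM TCEP. Glutathione donor and nickel acceptor beads; 1 h, 37 °C, dark.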
PINK1 modulator – modulators of PINK1 expression | AID 624263 | 0.2% of 410,000 active | PINK1 immunofluorescence, high-content cytometry, 24 h | Potency, µM (titrated, usually from 76.6 µM), without a hit: at the top dose activation (PINK1 increase), actives largely listed as activators; active = well fitted activation curve with a large enough effect; inconclusive = small, poorly fitted or top-dose-only effect; inactive = flat fitted curve, though single readings scatter; cell line not stated here;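 note: potency is the fitted concentration of half-maximal effect; % of control where 0% means no effect; nearly all actives have a fitted effect of over 65% in size; a mitochondrial uncoupler was the plate control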
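PINK1 protein, normally rapidly degraded, was detected by immunofluorescence after 24 hour compound treatment of a stable cell line. Titration data (5 concentrations) came from laser-scanning cytometry, with CCCP-treated wells as controls.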
D2 agonist – agonists of human D2 dopamine receptor (beta-arrestin). 0.084% of 360,000 active. P14416. activation, % (concentration not given with the values). DiscoveRx PathHunter D2 beta-arrestin, luminescence, 90 min; 100% = 57 uM dopamine signal; in the data active = activation above about 40%; inconclusive = about 15% to 40%; inactive = below about 15%; note: compound concentration not given in the record; the text of the record calls up to 30% inactive
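DiscoveRx PathHunter D2 beta-arrestin cells (2,100/well) attached overnight, then compound-stimulated 90 min at 37 C in HBSS/10 mM HEPES/0.1% Tween-20 buffer; beta-galactosidase complementation read by luminescence after 1 h at ambient temperature. Dopamine 57 uM final (EC100) as control.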
CtBP-E1A blk – inhibitors of CtBP/E1A interaction. AlphaScreen GST-E1A/His-CtBP binding, 1536-well; active compounds read low; control for the full effect not named in the record. activity change, % (test concentration not listed). 0.49% of 340,000 active; in the data active means activity change below about -65%; inconclusive means about -30% to -65%; inactive means above about -30%; note: % is set by controls: 0 for no effect and ±100 for the full control effect
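AlphaScreen with 125 nM GST-E1A and 125 nM His-CtBP (5X stocks) in Tris pH 8.0, 300 mM NaCl, BSA, Tween 20, TCEP. Compounds preincubated 2 h at 37 deg C, then glutathione donor/nickel acceptor beads added for 1 h at 37 deg C in dark.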
TRPML1 blocker – blocks the human TRPML1 channel | 0.02% of 390,000 active | AID 624415 | TRPML1-inducible cells, Ca2+ dye fluorescence, FDSS; active compounds read low; inhibition of EC80 agonist-evoked calcium signal | activity change, negative = inhibition, % (no concentration beside the values) | Q9GZU1; in the data active means activity change below about -50%; inconclusive means about -30% to -50%; inactive means above about -30%;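 note: stimulus is agonist 54-4 at its EC80 concentration; % is set by controls: 0 for no effect and ±100 for the full control effect; compound concentration not given in the record; the text of the record puts the active cut at -80%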
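Tet-induced TRPML1-DL cells loaded with Ca8 no-wash calcium dye were read kinetically on FDSS. Compound addition was followed by EC80 agonist 54-4 (4 uM final); inhibition was read over 110 s.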
TRPML1 agonist – human mucolipin-1 channel agonism; Q9GZU1; activation, % (concentration not given with the values); 0.12% of 410,000 active; AID 624414; TRPML1-expressing cells, Ca2+ dye fluorescence, FDSS; host cell line not named in the record; reference of the full effect not given here; in the data active = activation above about 50%; inconclusive = about 30% to 50%; inactive = below about 30%; note: 0% is about no effect; the text of the record puts the active cut at 80%
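Tetracycline-induced TRPML1-DL cells are seeded and incubated overnight before loading with a no-wash Ca2+ dye and quencher. Agonist activity is taken from the 110 s fluorescence read following compound pin-transfer on an FDSS, before EC80 54-4 challenge.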
Starred values were filed as active, the others as inactive; ? = inconclusive; nt = not tested or not shown; & = joins results of further samples; [ ] = dose if it differs, or a comment.

SMILES | Six1-Eya2 blk | PINK1 modulator | D2 agonist | CtBP-E1A blk | TRPML1 blocker | TRPML1 agonist
Cc1ccc([N+](=O)[O-])cc1NC(=O)CCCOc1ccccc1 | 0.9 | -1.0% | -1.7 | -11.4 | 2.7 | 0.8
Cc1ccc(S(=O)(=O)Nc2ccc3c(c2)CC(=O)N([C@H](C)CO)C[C@@H](C)[C@H](CN(C)Cc2ccc(-c4ccccc4)cc2)O3)cc1 | -18.4 | 8.5% | -2.4 | -14.2 | -0.2 | 1.9
CN(C)S(=O)(=O)c1ccc2c(c1)nc1n2CCC1 | 14.5 | 0.7% | -0.5 | -3.4 | 9.4 | 0.1
COc1cc(C(=O)OCC(=O)Nc2ccc3c(c2)OC(F)(F)O3)ccc1OCc1c(C)noc1C | 1.6 | 0.5% | 2.4 | -4.1 | -4.8 | 2.0
Cc1cc(C(=O)O)ccc1-c1ccc(/C=C2\NC(=O)N(Cc3ccc(F)cc3)C2=O)o1 | -10.2 | -0.5% | 1.0 | nt | 9.8 | 0.8
CSc1cccc(NC(=O)c2[nH]c(C)c(C(C)=O)c2C)c1 | -29.2 | 3.9% | -5.2 | ? | 62.4 | 0.2
Cn1c(SCC(=O)NC2CCCCC2)nnc1-c1ccccc1F | 6.3 | 1.4% | -2.0 | -0.6 | -3.5 | 0.6
O=C(CCC(=O)N1Cc2ccccc2Oc2ncccc21)NCc1cccc(Cl)c1 | nt | 1.5% | nt | nt | -13.2 | 0.8
COc1cc(OC)c(OC)cc1CNC1CCCCCC1 | -1.3 | 1.2%[38.3 µM] | -1.7 | 0.5 | 1.7 | 1.1
CCSC1=NC2(CCN(C(=O)NC3CCCCC3)CC2)N=C1c1ccc(C)cc1 | nt | 3.5% | nt | nt | -8.1 | 0.5
CCN1CCN(C(=S)Nc2ccc(C(C)=O)cc2)CC1 | 6.8 | 2.6% | 3.7 | 5.6 | -23.1 | 1.2
Cc1cccc(C(=O)Nc2ccccc2C(=O)Nc2ccc(C(=O)O)cc2)c1 | 2.6 | 0.0% | -0.8 | 4.6 | 0.1 | 0.0

Three entries already listed, sorted by the number in Six1-Eya2 blk, low to high.
Structure | Six1-Eya2 blk
Cc1ccc(S(=O)(=O)Nc2ccc3c(c2)CC(=O)N([C@H](C)CO)C[C@@H](C)[C@H](CN(C)Cc2ccc(-c4ccccc4)cc2)O3)cc1 | -18.4
Cn1c(SCC(=O)NC2CCCCC2)nnc1-c1ccccc1F | 6.3
CCN1CCN(C(=S)Nc2ccc(C(C)=O)cc2)CC1 | 6.8

Some values from the list.
CCN1CCN(C(=S)Nc2ccc(C(C)=O)cc2)CC1 | PINK1 modulator: 2.6%
Cn1c(SCC(=O)NC2CCCCC2)nnc1-c1ccccc1F | CtBP-E1A blk: -0.6
Cc1ccc([N+](=O)[O-])cc1NC(=O)CCCOc1ccccc1 | PINK1 modulator: -1.0%

Continued.
SMILES | Six1-Eya2 blk | PINK1 modulator | D2 agonist | CtBP-E1A blk | TRPML1 blocker | TRPML1 agonist
Clc1ccc(C2[C@H]3CN(CC4CCCCC4)[C@H](c4ccccc4)C34CC2(c2ccccc2)C4)cn1 (stereo not given in full) | -14.3 | 1.9% | -2.7 | nt | -20.0 | -0.3
COc1cc([N+](=O)[O-])c(C(=O)N2CCOCC2)c([N+](=O)[O-])c1 | -0.2 | 3.5% | 5.1 | 2.5 | -1.0 | -0.2
Cc1cc(=S)[nH]c2ccccc12 | -4.8 | -4.6% | -3.5 | -1.3 | 7.4 | -0.2&-0.7
O=C(COc1ccccc1)N(Cc1ccco1)C1CCS(=O)(=O)C1 (stereo not given) | 3.2 | nt | 0.8 | 12.2 | 9.1 | 0.5
Cc1ccc(S(=O)(=O)N2[C@@H](c3ccc(Cl)cc3)C(C(=O)O)=CC[C@H]2c2ccc(C(C)C)cc2)cc1 | -1.1 | 1.5% | 1.6 | -0.7 | -16.7 | -0.1
COc1ccccc1N1CCN(S(=O)(=O)CCNC(=O)Cc2ccc(F)cc2)CC1 | -4.1 | ? | -3.6 | 10.7 | 6.4 | -0.8
O=C(c1ccccc1F)N1c2ncnn2C2(CCCCC2)[C@@H]2CCCC[C@@H]21 | nt | 0.1% | nt | nt | -6.2 | 1.1
Cc1cc(C(=O)CSc2nc(N)cc(=O)[nH]2)c(C)n1CC1CCCO1 (stereo not given) | 0.5 | 0.1% | 4.0 | -0.4 | 32.1 | -0.1
CC(NC(=O)c1cccc(C(F)(F)F)c1)C1CCCO1 (stereo not given) | 3.1 | -2.3%[38.3 µM] | -2.1 | 5.6 | 1.2 | 0.1
CN(c1c[nH]c(=O)[nH]c1=O)C1CCCCC1 | 0.6 | 1.6% | -4.0 | nt | -5.2 | -0.1
COc1ccc(-c2nn(-c3ccccc3)cc2/C=N/NC(=O)c2cccc(S(=O)(=O)Nc3ccccc3OC)c2)cc1 | -4.8 | 2.7% | -3.9 | -17.0 | -9.9 | -0.2
C[C@H](CO)N1C[C@H](C)[C@@H](CN(C)S(=O)(=O)c2ccccc2)Oc2c(NC(=O)Cc3ccccc3)cccc2C1=O | 0.6 | 1.3% | -1.5 | 4.6 | -13.1 | 0.1
O=S(=O)(Cc1cc(Sc2ccc(Cl)cc2)nc(-c2ccccc2)n1)c1ccccc1 | 15.0 | 10.1% | -1.8 | -0.2 | 1.9 | -0.4
CC(C)c1c(O)nc(SCc2ccc(F)cc2)[nH]c1=O | 10.9 | -0.7% | -3.2 | 1.1 | -12.4 | 0.0
O=C(CN1CCCC1)Nc1ccccc1Sc1ccccc1 | 1.4 | 7.8% | -2.6 | 4.6 | -2.1 | 0.6
COc1ccc(C2NC(=O)N(C)C(C)=C2[N+](=O)[O-])cc1 (stereo not given) | 3.7 | 0.9% | 5.8 | nt | nt | nt
O=C(c1cc(-c2ccc(Cl)cc2)n[nH]1)N1CCN(S(=O)(=O)c2ccc(Br)s2)CC1 | nt | 3.6% | nt | nt | -26.4 | 2.3
Cc1cc(-c2nnc(-c3cc4ccccc4oc3=O)o2)c(C)n1-c1ccccc1 | -1.1 | 5.3%[38.3 µM] | -2.2 | -3.5 | -7.3 | 0.0
COc1ccc(CCNS(=O)(=O)c2cc(-c3onc(C)c3C)ccc2OC)cc1OC | nt | 0.6% | nt | nt | -12.5 | -0.1
Cn1c(COc2ccc3ccccc3c2)nnc1SCC(N)=O | -2.3 | 0.1% | -1.4 | 6.9 | -3.6 | -0.6
O=[N+]([O-])c1ccc(-c2csc(NN=C3CCCC3)n2)cc1 | 3.3 | 11.6% | 5.6 | -5.0 | -24.0 | 0.3
Cc1ccc(C(=O)Nc2ccc3c(c2)OCO3)cc1NC(=O)c1ccco1 | -8.8 | 0.0% | -19.2 | -0.5 | -2.5 | 1.4
CC(=O)N(C1=C(N)C(=O)c2ccccc2C1=O)C(C)C | 2.7 | 0.8% | 9.9 | 5.6 | -5.4 | 0.6
CCc1ccc(/C=C2\SC(=S)N(CCC(=O)Nc3cc(C)on3)C2=O)cc1 | -2.1 | 7.5% | 1.5 | 5.0 | 18.5 | 0.8
O=C(Nc1ccccc1)Nc1ccc(Oc2ncnc3cc(Cl)ccc23)nc1 | 9.9 | 0.4% | -2.8 | 12.3 | -9.0 | -0.2
CCN(CC)S(=O)(=O)c1ccc(NC(=O)C2CCCN(C(=O)c3ccc(Cl)cc3)C2)cc1 (stereo not given) | 7.6 | 1.0% | 0.9 | -4.6 | -1.3 | 1.3
CC1(C)NC(=O)N(CC(O)COc2ccccc2[N+](=O)[O-])C1=O (stereo not given) | -9.1 | 3.2% | 12.0 | 5.7 | -18.9 | 0.1
Cc1nc(NCc2ccccc2)c(C(N)=O)c2c1COC(C)(C)C2 | 8.1 | 1.6% | 4.0 | 3.6 | 1.5 | -0.2
O=C(N/N=C/c1cccnc1)c1cccc(Br)c1 | 15.4 | 4.4% | -4.7 | 0.0 | -25.5 | 0.0
CN(C)S(=O)(=O)c1ccc2oc(SCC(N)=O)nc2c1 | -5.1 | 0.8% | 10.8 | -7.9 | 14.6 | 0.1
COCCN(C(=O)Nc1ccccc1OC)c1nc2ccccc2s1 | -0.1 | 0.3% | -4.0 | nt | -5.6 | 0.7
COc1cccc(CNC(=O)c2cccc(-n3c(C)nc4cccnc43)c2)c1OC | nt | 0.9% | nt | nt | 3.0 | 2.1
C=C(C)COc1ccc(-c2ncnc(C(F)(F)F)c2-c2ccc(OC)cc2)c(O)c1 | -17.2 | ? | -0.9 | -13.9 | 44.5 | 0.4
Cc1ccc(S(=O)(=O)N2CCN(C(=O)c3cc(-c4cccs4)nn3-c3ccccc3)CC2)cc1 | 2.3 | 9.5% | -5.0 | -14.4 | 7.2 | -0.9
Cc1cccc2c1-c1sc(C(=O)N(C)c3cccc(Cl)c3)cc1CO2 | nt | 0.2% | nt | nt | -10.5 | 1.2
CCC(C)CNC(=O)c1[nH]c(C(F)(F)F)nc1-c1ccccc1 (stereo not given) | 1.3 | 1.2% | -1.2 | -11.0 | nt | 0.0
CCOc1ccc(CCNC(=O)COC(=O)COc2ccc(C#N)cc2)cc1OCC | 7.4 | 2.0% | -1.1 | -5.7 | 9.8 | 0.4
CCCn1c(SCc2nc(-c3ccccc3C)no2)nnc1-c1ccc(Cl)cc1 | nt | 0.8% | nt | nt | 19.0 | 2.9
CC(=O)Oc1ccc(/C(C)=N/N2CCN(Cc3ccc(C)cc3)CC2)cc1 | 3.9 | -0.9% | -4.3 | -6.8 | -10.9 | -0.7
CCCCC(c1nnnn1CCOC)N1CCN(C)CC1 (stereo not given) | 2.9 | -1.7% | 0.5 | -1.8 | 15.8 | 1.2
CC(C(=O)Nc1ccc2c(c1)OCO2)N(C)CC(=O)Nc1ccc(Cl)cc1 (stereo not given) | -6.4 | 1.7% | -3.9 | 25.8 | 10.8 | 0.0
O=C(NCc1ccco1)C1CCN(C(=O)c2ccc(Cl)cc2)CC1 | 3.2 | 1.6% | -4.7 | nt | -9.6 | -0.1
Cc1ccnc(SCC(=O)N2CCN(c3cccc(Cl)c3)CC2)n1 | -1.5 | -3.0% | -0.8 | -5.4 | -24.5 | 2.3
CCN(CC)C(=O)C1CCN(CC2CC=CCC2)CC1 (stereo not given) | 1.8 | -0.1% | -2.8 | -3.5 | -4.8 | -0.5
O=C(Nc1ccc2c(c1)OCCO2)N1CCN(c2ccccc2)CC1 | 1.2 | nt | 0.5 | -7.8 | -6.1 | -0.3
COc1cccc(C(=O)CSc2nnc(-c3ccco3)n2CC2CCCO2)c1 (stereo not given) | -3.6 | -1.4% | -2.3 | -1.2 | -14.4 | -0.8
Nc1nc(-c2cc3ccccc3o2)cs1 | -8.6 | -2.4% | -0.3 | -10.6 | -3.7 | -0.9
COc1ccc(/C=N\N=C2/SC(CC(=O)O)C(=O)N2c2ccc(O)cc2)cc1OC (stereo not given) | 1.6 | -1.5% | -2.4 | 1.6 | 18.3 | 7.5

Screening data deposited in PubChem by National Center for Advancing Translational Sciences (NCATS).
